High-throughput results (PubChem)
GIV-Gai inh – inhibitors of GIV GBA-motif binding to rat Galpha-i3; Galpha-i3/FITC-GIV peptide fluorescence polarization, 90 min; active compounds read low; scaled: aluminum fluoride 0%, vehicle 100%; 210,000 tested, 0.42% active; percent of control (FP), % (no concentration beside the values);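 active = replicate mean at 85% of control or lower, very high polarization wells dropped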;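 note: wells of about 15 µL received 100 nL stock; the first replicate is given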
Target sequence (P08753 whole entry, looked up): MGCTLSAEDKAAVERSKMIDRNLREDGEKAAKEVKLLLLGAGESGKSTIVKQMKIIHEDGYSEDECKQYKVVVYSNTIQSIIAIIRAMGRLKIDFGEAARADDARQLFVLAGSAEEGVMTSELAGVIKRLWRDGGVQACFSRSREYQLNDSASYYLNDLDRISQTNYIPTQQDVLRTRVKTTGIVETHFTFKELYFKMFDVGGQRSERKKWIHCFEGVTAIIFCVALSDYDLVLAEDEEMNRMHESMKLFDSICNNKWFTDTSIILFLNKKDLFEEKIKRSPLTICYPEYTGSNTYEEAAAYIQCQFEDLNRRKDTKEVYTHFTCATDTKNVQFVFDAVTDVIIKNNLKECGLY
HCMV UL50-53 inh – cytomegalovirus nuclear egress complex inhibition; HTRF UL50-UL53 interaction, normalized percent inhibition; inhibition, % (test concentration not listed); 190,000 tested, 0.15% active;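 active = both replicates at 50% or more, plus weaker picks with an unusually low signal ratio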;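 note: stock transfer was 100 nL into about 20 µL; 0% = negative control wells and 100% = wells with untagged competitor protein; inactives centre near -12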
Sa growth 42C – inhibitors of Staphylococcus aureus growth at 42 °C; S. aureus RN4220 growth, OD600, 20 h; active compounds read low; relative growth, % (test concentration not listed); 170,000 tested, 0.53% active; AID 720641;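 active = growth at 42 °C up to 50% and 20 or more points under that at 30 °C, or under 10% at both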;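 note: 300 nL library stock went into each well; scaled to the means of positive and negative controls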
Sa growth 42C second temp – further read-out of Sa growth 42C, marked with its call; relative growth, %; measured here: growth at 30 °C;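 optical density after 20 h as mean of two plates; 100% = untreated growth and lower means inhibition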
Numbers without * were called inactive; . = not tested or not shown; & = joins results of further samples.

SMILES	GIV-Gai inh	HCMV UL50-53 inh	Sa growth 42C	Sa growth 42C second temp
COc1ccc(C(C(C#N)C#N)C2C(=O)N(Cc3ccccc3)N=C2C)cc1 (configuration not stated)	99.5	-18.5	94.3	82.6
CCn1c(C(=O)N2CCCC(C(=O)O)C2)cc2sccc21 (configuration not stated)	103.5	.	106.9	83.2
O=C1c2ccccc2C(=O)C1(c1ccccc1)N1CCN(c2ccccc2)CC1	102.9	5.3	104.1	88.4
CC(C)n1cnc2nc(COc3ccc(Cl)cc3NC(=O)Nc3ccccc3)cc(=O)n21	97.8	4.8	.	.
COc1ccc(-c2nc(CSCC(=O)N3CCN(c4ccc(OC)cc4)CC3)c(C)o2)cc1	101.9	-3.9	100.0	92.6
O=C(CCCSc1nnc(-c2cccs2)n1CC1CCCO1)c1ccccc1 (configuration not stated)	.	-20.1	86.4	87.1
O=C(NC1CC(=O)N(c2ccccc2)C1)N1CCN(C(=O)c2ccco2)CC1 (configuration not stated)	100.6	-13.8	93.1	91.0
OCCN1CCn2c(nc3cc(Cl)ccc32)C1	98.9	7.0	.	.
O=C(CCn1c(=O)sc2ccccc21)NCCCc1ccccc1	102.5	.	95.0	93.4
COc1ccc2c(c1)Cc1sc(NC(=O)c3ccc(Cl)cc3)nc1-2	106.8	-4.1	100.9	94.7
O=C1/C(=C\c2ccc(OC(F)F)cc2OC(F)F)Oc2cc(O)ccc21	.	-27.6	34.9	15.9
Cc1ccc(S(=O)(=O)N(O)c2ccc(Cl)cc2)cc1	.	-7.9	79.0	78.7
O=C(CCC(=O)c1ccc(F)cc1)OC1CCOC1=O (configuration not stated)	.	0.5	95.4	90.3
CCCCn1c(CCC(=O)O)nc2cc(S(=O)(=O)N3CCOCC3)ccc21	.	-22.3	99.9	86.6
CCNC(=O)c1ccccc1NC(=O)c1cccc(S(=O)(=O)N2CCCC2)c1	96.4	.	109.9	84.7
CNC(=O)C1CCCN(c2nnc(C)c3c(C)n(-c4ccccc4)nc23)C1 (configuration not stated)	113.7	.	97.1	88.2
Cc1ccc2c(c1)C(c1ccccc1)N(C(=O)c1cccc(Br)c1)CC(=O)N2 (configuration not stated)	98.5	-10.3	.	.
O=c1oc(-c2ccc(Cl)cc2)nnc1-c1ccccc1	98.8	-37.6	96.5	88.0
CCNc1ncnc2c1cnn2-c1ccc(C)cc1	98.1	-5.0	86.3	89.3
O=C(Cn1cnc2c(nc3n2CCCCC3)c1=O)N1CCN(c2ccc(Cl)cc2)CC1	104.8	5.8	.	.
Cc1cccc(C)c1NC(=O)COC(=O)Cn1nnc(-c2ccccc2)n1	.	5.1	103.8	96.8
CCN=C1SC(CC(=O)Nc2ccc(C(F)(F)F)cc2)C(=O)N1CC (configuration not stated)	101.9	-11.4	.	.
CCn1c(=O)c2c(C(=O)NCCCOC(C)C)cc(=O)n(CC)c2n(C)c1=O	103.2	-10.6	.	.
COC(=O)NCc1ccc(CNC(=O)OC)cc1	101.3	-18.9	95.2	89.6
Cc1cccc(OCC(=O)N(Cc2ccco2)Cc2ccco2)c1	103.5	-11.7	87.3	72.5
CC(Sc1nc2ccccc2n1C)C(=O)Nc1ncc(Cl)cc1Cl (configuration not stated)	.	-17.2	86.5	85.6
CC(C)(C)CC(=O)Nc1cccc2c1CCCC2	107.5	-3.3	109.7	101.2
CCOc1ccc(C(=O)c2c(N)c(-c3nc(-c4ccc5c(c4)OCO5)cs3)c3ccccn23)cc1	102.3	-17.9	103.3	86.9
CC1=C(C(=O)N2CCOCC2)C(c2ccc3c(c2)OCCO3)NC(=S)N1 (configuration not stated)	.	-5.3	92.5	94.5
COCC(=O)Oc1ccc2c(C)c(Cc3ccc(F)cc3)c(=O)oc2c1	99.2	3.1	106.8	96.9
CCC(Sc1nc2c(c(=O)[nH]1)CCC2)C(=O)Nc1cccc(OC)c1 (configuration not stated)	99.1	.	101.2	83.1
CCOC(=O)C1CCCN(c2ncnc3c2nnn3C)C1 (configuration not stated)	98.0	.	104.2	96.8
CCSc1nc(O)cc(=O)n1-c1ccc(OC)cc1	105.1	-20.5	81.0	73.9
C=CCn1c(SCC#N)nc2c(c1=O)C1(CCCCC1)Cc1ccccc1-2	96.9	-31.0	85.1	67.5
O=C(O)CCC(=O)N1N=C(c2ccc(Br)cc2)CC1c1cccs1 (configuration not stated)	101.8	-64.2	.	.
O=C(COC(=O)C1(c2ccccc2F)CCCC1)N1CCCCC1	.	10.3	88.9	100.4
CCN(CC)C(=O)CSc1nc2cc3c(cc2c(=O)n1CCCCCC(=O)NCCc1ccc(OC)c(OC)c1)OCO3	107.1	.	88.2	86.3
Cc1ccc(COC2CN(S(=O)(=O)c3cccc4nsnc34)C2)cc1	95.1	-92.6	.	.
COc1ccc(CCn2c(NCc3ccco3)nc3c2c(=O)[nH]c(=O)n3C)cc1	100.2	-31.8	97.8	91.8
CCc1ccccc1NC(=O)Nc1c(C)n(C)n(-c2ccccc2)c1=O	98.9	-0.6	99.3	91.8
CCc1ccccc1NC(=O)Cn1c(=O)n(CCCCCC(=O)NCc2ccc(C)cc2)c(=O)c2sccc21	103.3	-9.0	96.1	76.0
CC1CCc2cc(F)ccc2N1C(=O)CCC(=O)O (configuration not stated)	98.1	-3.1	95.5	90.7
CCCn1c(SCc2nc(-c3ccc(OC)cc3)no2)nnc1-c1ccncc1	103.7	.	94.7	83.0
S=C(NCCCN1CCOCC1)Nc1ccccc1	97.1	-22.9	101.2	90.0
N#Cc1ccc(OCC(=O)Nc2ccncc2)cc1	.	-22.7	110.4	76.9
COC(=O)C1CCN(C(c2ccc(OC)cc2)c2sc3ncnn3c2O)CC1 (configuration not stated)	104.5	-35.2	101.3	82.3
O=C(COC(=O)c1cccnc1Cl)NC12CC3CC(CC(C3)C1)C2	.	-0.8	87.3	98.2
C=CCn1c2ccccc2c2nnc(SCC(=O)NC3=NN=C(c4ccccc4)CS3)nc21	104.3	.	115.3	77.3
COc1ccc(C2c3cc(OC)c(OC)cc3CCN2C(C)=O)cc1OC (configuration not stated)	105.0	1.5	114.2	97.8
OCc1nc(-c2cccc(C(F)(F)F)c2)cs1	105.0	2.4	117.7	71.7
CN(C)c1cccc(C(=O)OCc2ccc(C#N)cc2)c1	.	-2.2	90.4	84.2
CC(=O)c1cc(-c2ccccc2)n(CCC(=O)Nc2ccc(C)cc2C)c1C	99.8	.	98.0	90.0
CCOC(=O)C1CCCN(C(=O)c2ccc3c(c2)N(C)CCS3)C1 (configuration not stated)	101.6	-0.5	102.8	92.8
CC/C(=N\NC(=O)c1cc2c(C)nn(-c3ccccc3)c2s1)C(C)C	.	7.7	106.5	90.8
O=C(COC(=O)Cc1n[nH]c(=O)c2ccccc12)Nc1ccccc1	.	-7.2	103.2	102.2
CC(C)=NNc1nc(Cl)c(C#N)c(Cl)c1Cl	110.2	-5.3	6.4*	2.5*
CCc1noc2nc(C)n(CC(=O)O)c(=O)c12	100.7	-33.7	112.8	83.6
CCCCn1c(CNC(=O)C23CC4CC(CC(C4)C2)C3)nnc1SCC(=O)Nc1ccccc1	99.6	-15.4	104.3	76.0
Clc1ccccc1OCc1nnc(-c2ccccc2)o1	97.9	.	85.0	81.9
O=C(C1CCCN(Cc2ccco2)C1)N1CCCCCC1 (configuration not stated)	100.8	.	116.4	91.5

(next part)
SMILES	GIV-Gai inh	HCMV UL50-53 inh	Sa growth 42C	Sa growth 42C second temp
CCN(C(=O)c1cnc2sccn2c1=O)c1ccccc1	97.6	.	76.5	80.2
CCn1c2ccccc2c2nnc(N3CCC(C)CC3)nc21	98.4	.	90.2	82.2
Cc1ccccc1CN1C(=O)C(O)(CC(=O)/C=C/c2ccco2)c2ccccc21 (configuration not stated)	114.9	-5.7	93.8	78.4
Cc1ccc(C)c(NC(=O)Nc2cc3c(cc2N2CCCCC2)n(C)c(=O)n3C)c1	104.0	12.2	111.5	98.6
COc1cccc(NC(=O)C2CCCN2S(=O)(=O)c2cc3c(cc2C)NC(=O)CO3)c1 (configuration not stated)	109.9	6.4	.	.
COc1ccc(-c2nc(Cn3c(=O)cc(C)c4c(C)nn(-c5ccccc5)c43)c(C)o2)cc1OC	106.8	.	101.7	95.3
CCOC(=O)C1CCCN(C(=O)c2ccc3c(c2)N(CC)CCS3)C1 (configuration not stated)	103.7	2.7	106.3	93.1
O=C(CO)c1c[nH]c2ccccc12	101.4	.	102.4	83.3
O=C(O)c1ccc(-c2ccco2)n1Cc1ccccc1	101.2	1.0	104.2	96.5
COc1cc2nc(-n3nc(C)cc3C)n3nc(-c4ccccc4)nc3c2cc1OC	112.8	.	73.6	83.6
Cc1ccc(/C=C2/SC(=S)N(C(C)C(=O)O)C2=O)o1 (configuration not stated)	112.3	.	85.2	74.6
COC(=O)c1nnn(CC(=O)Nc2ccc(Br)c(C)c2)c1N	97.1	5.5	103.0	87.6
O=S(=O)(NCc1ccco1)c1ccc(F)c(F)c1	.	-24.2	104.4	89.2
O=C(Nc1cccc(C(=O)N2CCN(C(c3ccccc3)c3ccccc3)CC2)c1)c1ccco1	102.3	-10.1	120.2	102.1
CCCCN(C)c1ccc(NC(=O)c2ccccc2Cl)c(C(=O)O)c1	98.0	-25.2	.	.
CCSC1(SCC)N=C(N)C2(C#N)C(c3ccc(NC(C)=O)cc3)C12C#N (configuration not stated)	102.7	-1.2	76.7	57.4
CC(=O)N1CCN(C(=O)COC(=O)c2ccc(C(C)C)cc2)CC1	.	-13.1	86.2	93.5
O=C(NCCCN1CCCCC1)C1CCCN(c2ccc(-c3ccccc3)nn2)C1 (configuration not stated)	100.7	-48.4	.	.
O=c1c(Cl)c(N2CCOCC2)cnn1Cc1ccccc1	.	-47.9	115.3	96.3
Cc1ccc(OCc2nnc(SCC(=O)CC(=O)Nc3ccccc3)o2)cc1	107.8	-2.3	92.8	91.2

Complete entries as entered above. Screens in order: GIV-Gai inh | HCMV UL50-53 inh | Sa growth 42C | Sa growth 42C second temp
CCOC(=O)C1CCCN(C(=O)c2ccc3c(c2)N(CC)CCS3)C1 (configuration not stated) reads 103.7 | 2.7 | 106.3 | 93.1
Cc1ccc(OCc2nnc(SCC(=O)CC(=O)Nc3ccccc3)o2)cc1 reads 107.8 | -2.3 | 92.8 | 91.2
O=C(O)c1ccc(-c2ccco2)n1Cc1ccccc1 reads 101.2 | 1.0 | 104.2 | 96.5
COc1cccc(NC(=O)C2CCCN2S(=O)(=O)c2cc3c(cc2C)NC(=O)CO3)c1 (configuration not stated) reads 109.9 | 6.4 | . | .
O=c1c(Cl)c(N2CCOCC2)cnn1Cc1ccccc1 reads . | -47.9 | 115.3 | 96.3

(continued)
SMILES	GIV-Gai inh	HCMV UL50-53 inh	Sa growth 42C	Sa growth 42C second temp
Cn1nnnc1SCCCNCc1ccc(-c2ccc(F)c(Cl)c2)o1	102.9	-35.3	108.0	76.9
Nc1ccc(C(=O)O)c(O)c1	101.5	-10.5&-47.4&-15.3&-9.7	78.5&85.2&81.2	84.7&88.7&85.1
CCCC(=O)NCCc1nc2ccccc2[nH]1	102.0	-1.1	102.5	95.1
O=C(COC(=O)C(Cc1c[nH]c2ccccc12)NC(=O)c1ccc(Br)cc1)c1ccc(Cl)cc1 (configuration not stated)	106.9	.	94.5	82.5
CC1=C(C(=O)Nc2cccnc2)C(c2ccccc2)n2nc(SCc3ccccc3)nc2N1 (configuration not stated)	103.9	-9.5	123.3	97.6
COc1ccc(CCn2c3c(c(=O)[nH]c2=O)C(NC(=O)c2ccccc2F)(C(F)(F)F)C(=O)N3)cc1OC (configuration not stated)	107.6	-10.3	108.2	91.1
Cc1ccc2c(c1)c1c3n2CCN(C=O)C3CCC1 (configuration not stated)	97.5	.	76.9	74.0
Cc1ccc(C2=Nc3ccccc3N=C(SCC(=O)Nc3ccc4c(c3)OCO4)C2)cc1	105.7	-18.7	.	.
CCC(C)NC(=O)c1cccc(-n2cnc3cccnc32)c1 (configuration not stated)	95.7	6.5	.	.
O=C1CN(C2c3ccccc3CC2NS(=O)(=O)c2ccccc2)CCN1 (configuration not stated)	.	-29.9	86.4	82.1
O=C(Cc1csc(NC(=O)c2ccccc2)n1)Nc1ccc(Br)cc1	113.5	-2.2	.	.
O=C1CN(C(=O)CSc2cccc[n+]2[O-])c2ccccc2N1	.	-12.2	90.7	93.9
CCOc1ccccc1NC(=O)CN1C(=O)C(C)(C)c2ccccc21	98.1	-20.2	.	.
COc1ccc(OCc2nnc3sc(-c4ccc5c(c4)OCCO5)nn23)cc1	105.7	-9.6	.	.

Compounds above containing a CF3 group:
SMILES	GIV-Gai inh	HCMV UL50-53 inh	Sa growth 42C	Sa growth 42C second temp
CCN=C1SC(CC(=O)Nc2ccc(C(F)(F)F)cc2)C(=O)N1CC (configuration not stated)	101.9	-11.4	.	.
OCc1nc(-c2cccc(C(F)(F)F)c2)cs1	105.0	2.4	117.7	71.7
COc1ccc(CCn2c3c(c(=O)[nH]c2=O)C(NC(=O)c2ccccc2F)(C(F)(F)F)C(=O)N3)cc1OC (configuration not stated)	107.6	-10.3	108.2	91.1
